TRPML1 agonist: activates the human TRPML1 channel. Q9GZU1. TRPML1-expressing cells, Ca2+ dye fluorescence, FDSS; host cell line not named in the record; reference of the full effect not given here. activation, % (no concentration beside the values). hit rate 0.12% among 410,000. AID 624414; in the data active = activation above about 50%; inconclusive = about 30% to 50%; inactive = below about 30%; also: 0% is about no effect; the text of the record puts the active cut at 80%
Target sequence (Q9GZU1 whole entry, looked up): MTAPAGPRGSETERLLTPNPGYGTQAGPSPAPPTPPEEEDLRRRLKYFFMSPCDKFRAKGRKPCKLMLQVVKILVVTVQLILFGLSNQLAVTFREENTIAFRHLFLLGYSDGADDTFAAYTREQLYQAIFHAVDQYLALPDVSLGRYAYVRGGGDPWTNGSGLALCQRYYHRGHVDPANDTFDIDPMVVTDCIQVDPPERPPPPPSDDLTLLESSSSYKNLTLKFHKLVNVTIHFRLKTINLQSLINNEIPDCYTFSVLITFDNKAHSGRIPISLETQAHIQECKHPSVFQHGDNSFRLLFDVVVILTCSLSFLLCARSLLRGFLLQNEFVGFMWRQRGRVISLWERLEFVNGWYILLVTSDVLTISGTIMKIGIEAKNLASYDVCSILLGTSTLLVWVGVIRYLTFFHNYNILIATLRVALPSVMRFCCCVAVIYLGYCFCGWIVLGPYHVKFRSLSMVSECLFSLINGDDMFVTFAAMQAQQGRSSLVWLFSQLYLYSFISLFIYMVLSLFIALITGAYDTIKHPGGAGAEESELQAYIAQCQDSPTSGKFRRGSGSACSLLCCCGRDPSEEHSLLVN
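Tet-induced TRPML1-DL cells, 1,500 per well, cultured overnight, were loaded with a no-wash Ca2+ dye for 45–90 min. Calcium fluorescence was recorded on the FDSS for 110 s after compound addition, before the EC80 agonist (4 uM 54-4) was added.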
ClpP mod: qHTS Assay for Activators of ClpP. ATP-dependent Clp protease proteolytic subunit (Bacillus subtilis (strain 168)), P80244. purified B. subtilis ClpP, FRET peptide cleavage, 20 min. Potency, µM (highest dose often 57.5 µM), without a hit: at the top dose activity change, negative = active. hit rate 1.9% among 340,000; active = well fitted falling curve with a large enough effect; inconclusive = small, poorly fitted or top-dose-only effect; inactive = no such curve, though single readings can be large or run the other way; also: potency is read from the fitted curve at half-maximal effect; the source files actives as falling curves though it sought activators and does not explain the sign; nearly all actives have a fitted effect of over 65% in size; many hits overshoot -100%
Target sequence (P80244 whole entry, looked up): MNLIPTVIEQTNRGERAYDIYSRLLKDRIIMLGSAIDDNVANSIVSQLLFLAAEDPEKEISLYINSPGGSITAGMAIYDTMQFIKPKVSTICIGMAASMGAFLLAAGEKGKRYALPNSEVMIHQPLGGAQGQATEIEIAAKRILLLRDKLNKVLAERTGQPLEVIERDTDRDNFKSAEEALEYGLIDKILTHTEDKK
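ClpP 10 microg/mL final, pH 8 Tris/KCl buffer with BSA, glycerol, Tween-20; compound pinned in; FRET-FV substrate; RT 20 min; Ex320/Em430; ΔFRET vs ADEP 5.8 microM, DMSO, no enzyme.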
* marks the source's active call; other numbers are inactive results; ? = inconclusive; & = joins results of further samples. An excerpt; count on the stated rates, not on these rows.

smiles	TRPML1 agonist	ClpP mod
CC(C)c1ccc(CN2CCC(C)(Oc3ccc(Cl)cc3)C2)cc1 (stereo not given)	-0.6	-0.2%
COc1ccc(CNC(=O)c2cn(Cc3ccccc3F)c(=O)s2)cc1	-0.7	-0.3%
CCCS(=O)(=O)NC(=O)C1(C)CCCN(C(=O)c2ccnc(Cl)c2)C1 (stereo not given)	-0.2	0.9%
COc1ccc(-c2csc(Nc3ccc(Oc4ccccc4)cc3)n2)cc1	-0.1	0.6%
CC(=O)Nc1cccc(-c2ccnc3c2CC(C)(C(=O)NCc2ccc(F)c(F)c2)O3)c1 (stereo not given)	-0.8	-17%
CCCS(=O)(=O)NC(=O)C1(C)CCCN(C(=O)c2ccccc2C(F)(F)F)C1 (stereo not given)	-0.6	0.7%
CCOC(=O)[C@]12CCC=C1N(Cc1ccc(Cl)cc1Cl)C(=O)[C@H](CC(=O)NCCc1ccccc1OC)C2	1.1	-1.6%
Cc1nc2ccc(C(=O)NCCCn3ccnc3)cn2c1N(C)C(=O)CCc1ccccc1	-0.7	-5.4%
Cc1cc(C)cc(CC(=O)N2CCC2(C)C(=O)NS(=O)(=O)c2ccc(Br)cc2)c1 (stereo not given)	-0.9	-0.7%
COc1cc(CNC(=O)Nc2cccn3nc(COCCO)nc23)cc(OC)c1OC	-0.4	-3.1%
Nc1nc2[nH]cc(CCc3ccc(C(=O)N[C@@H](CCC(=O)O)C(=O)O)cc3)c2c(=O)[nH]1	-0.5	-12%
CC(=O)Nc1cc(-c2ccc(C(=O)N3CCOCC3)cc2)cn2c(-c3ccccc3)cnc12	-0.6	25µM*
CCc1sc(-c2cc3ccccc3oc2=O)nc1-c1ccc(C)cc1	-0.2	?
COc1ccc(C(O)c2nc(-c3cccc(F)c3)cs2)cc1 (stereo not given)	-0.6	0.4%
Cc1cccc(C)c1Cn1c(C)c(C(=O)NCc2ccccc2C(F)(F)F)sc1=O	1.2	1.1%
COc1c(C)cc(C(O)c2ncc(-c3cccc4ccccc34)[nH]2)cc1C (stereo not given)	0.7	4.8%
NC(=O)c1cccc(-c2ccnc3c2CC(C(=O)Nc2cccc(C(F)(F)F)c2)O3)c1 (stereo not given)	-0.6	-17%
C(=Nc1ccc(/C=C/c2ccnc3ccccc23)cc1)c1cccs1	7.7	-2.8%
CCOC(=O)C1(C)CCN1C(=O)c1ccc(F)c(Cl)c1 (stereo not given)	-0.9	0.2%
CN1CCCC1CN1CCCC1 (stereo not given)	0.0	-1.2%
COc1cccc(C(O)c2nc(-c3cccc(CO)c3)cs2)c1 (stereo not given)	-1.0	0.9%
O=C(CNC(=O)c1ccccc1)NCC(=O)OCC(=O)c1cccc2ccccc12	-0.5	0.4%
CC(C)CC(N)c1csc(Nc2cc(Oc3ccccc3)ncn2)n1 (stereo not given)	0.1	-0.8%
CC(C)CNC(=O)C1(C)CCCN1C(=O)c1cccnc1 (stereo not given)	-0.3	-0.3%
COC(=O)[C@]12CCCCC=C1N(Cc1cccc3ccccc13)C(=O)[C@H](CC(=O)NCCCCc1ccccc1)C2	1.5	0.0%

Entries of single compounds, looked up by structure:
C(=Nc1ccc(/C=C/c2ccnc3ccccc23)cc1)c1cccs1 as listed: TRPML1 agonist: 7.7; ClpP mod: -2.8%
CCOC(=O)C1(C)CCN1C(=O)c1ccc(F)c(Cl)c1 (stereo not given) as listed: TRPML1 agonist: -0.9; ClpP mod: 0.2%
CC(C)CNC(=O)C1(C)CCCN1C(=O)c1cccnc1 (stereo not given) as listed: TRPML1 agonist: -0.3; ClpP mod: -0.3%

Next structures.
smiles	TRPML1 agonist	ClpP mod
COc1ccc(/C=C/c2cnc3ccccc3n2)cc1OC	2.4	-6.6%
COCCNC(=O)C1CCCN(C(=O)Cc2cccc3ccccc23)CC1 (stereo not given)	-0.3	1.4%
COc1ccccc1-c1cnc(C(O)c2cccc(C)c2C)[nH]1 (stereo not given)	-1.0	-3.5%
O=c1[nH]c2c(-c3nc(-c4ccc(F)cc4)cs3)c(O)cn2c2ccc(Br)cc12	-0.3	-4.4%
Cc1ccc(NC(=O)COc2ccccc2C(=O)Nc2ccccc2)cc1	-0.2	-3.4%
CC(C)C(=O)N1CCCC1(C)C(=O)Nc1ccccc1 (stereo not given)	-0.6	-0.4%
CN(CCN(C)c1nc(-c2cccs2)nc2ccccc12)C(=O)OC(C)(C)C	-0.6	-9.6%
COCCNc1nc2cc(-c3ccc(C)cc3)sc2c(=O)n1C	-0.2	?
CN(C)CCNC(=O)c1cccc(-c2cnc3c(NC=O)cc(-c4ccc(C(=O)N5CCOCC5)cc4)cn23)c1	-0.6	-2.6%
OC[C@@H]1CN(C2CCCC2)C[C@H](n2cnc3c(N4CCCC4)ncnc32)O1	-0.3	1.7%
CCC(c1nnnn1-c1ccc2c(c1)OCCO2)N1CCN(C(=O)C2CCCO2)CC1 (stereo not given)	-0.3	-1.9%
COc1ccc(N2CCN(c3cc(C(=O)NC4CCCCC4)ncn3)CC2)cc1OC	-1.1	-3.7%
CCCCNC(=O)C1(C)CCN1C(=O)c1cc(F)ccc1C (stereo not given)	-0.7	-4.7%
CC(=O)Nc1cccc(-c2cc(NC(C)=O)c3ncc(-c4cccc(C(F)(F)F)c4)n3c2)c1	0.5	-29%
CCc1nc2ccc(C(=O)N3CCN(S(=O)(=O)CC)CC3)cn2c1N(C=O)CCC(C)C	-0.3	-1.8%
COc1ccc(-c2nc3ccc(Cl)cn3c2Cc2ccccc2C(F)(F)F)cc1OC	0.5	5.5%
COc1ccc(CNc2nc(N)nc3nc[nH]c23)cc1	-0.5&-0.7	-1.9%&0.1%
CCCc1c(-c2ccc(Cl)cc2)ncn1CCc1ccccc1OC	1.3	-1.7%
CCC(c1nnnn1-c1c(C)cccc1C)N1CCN(CCN2CCOCC2)CC1 (stereo not given)	0.0	1.8%
C=C1NN(C)C(=O)N1c1ccc(OC)cc1	-0.6	0.0%
COC(=O)CCCn1cc(CN2CC(N(C)C)CS2(=O)=O)nn1 (stereo not given)	-0.5	2.1%
CC(C)Oc1cccc(NC(=O)C2(C)CCN2C(C)C)c1 (stereo not given)	-1.0	0.6%
CNc1cccc(-c2ccc(N3CCN(C)CC3)nc2)n1	-0.4	5.0%
OCCN1CCN(c2nccn3ccnc23)CC1	0.0	-4.0%
CCc1cnc(Nc2nc(C(N)Cc3ccc(F)cc3)cs2)nc1 (stereo not given)	-0.3	1.6%

A draw from above in order of SMILES length, smallest number first.
smiles	TRPML1 agonist	ClpP mod
CCc1cnc(Nc2nc(C(N)Cc3ccc(F)cc3)cs2)nc1 (stereo not given)	-0.3	1.6%
OC[C@@H]1CN(C2CCCC2)C[C@H](n2cnc3c(N4CCCC4)ncnc32)O1	-0.3	1.7%
Cc1cc(C)cc(CC(=O)N2CCC2(C)C(=O)NS(=O)(=O)c2ccc(Br)cc2)c1 (stereo not given)	-0.9	-0.7%

Next part:
smiles	TRPML1 agonist	ClpP mod
CC1(C(=O)NS(=O)(=O)c2ccc(Cl)s2)CCN1C(=O)C1(c2ccc(Cl)cc2)CC1 (stereo not given)	-0.5	-1.4%
O=C(NCCN1CCC(n2c(=O)[nH]c3ccccc32)CC1)C(c1ccccc1)c1ccccc1	-0.6	-1.3%
Cc1ccc(-c2csc3ncnc(Sc4nnnn4-c4ccccc4)c23)cc1	-0.3	-15%
Nc1nc(NCc2ccccc2Cl)c2[nH]cnc2n1	-0.8	0.5%
C[C@@H]1CCCCO[C@@H](CN(C)Cc2ccc(Cl)c(Cl)c2)[C@@H](C)CN([C@H](C)CO)C(=O)c2cc(NC(=O)Nc3ccccc3)ccc2O1	0.0	-19%
CCSc1ncc(Cl)c(C(=O)Nc2sc3c(c2C(=O)NCCOC)CCCC3)n1	-0.4	3.5%
CN(Cc1ccc2c(c1)CCCN2C)C(=O)[C@H]1O[C@@H](n2ccc(=O)[nH]c2=O)[C@H](O)[C@@H]1O	-0.1	-3.3%
CC(=O)Nc1cccc(-c2cc(NC=O)c3ncc(-c4ccc(C(C)=O)cc4)n3c2)c1	-0.6	-15%
CN1CCN(C2CN(Cc3ccc(F)cc3)S(=O)(=O)C2)CC1 (stereo not given)	-0.7	-3.3%
NC(Cc1ccc(C(F)(F)F)cc1)c1csc(NC(=O)Nc2ccccc2Oc2ccccc2)n1 (stereo not given)	0.0	-0.4%
C#CCSc1nc2ccccc2c(=O)n1CC=C	-0.7	0.4%
CN1CCC(N2CCN(C3CN(Cc4cn(Cc5cccc(C(F)(F)F)c5)nn4)S(=O)(=O)C3)CC2)CC1 (stereo not given)	-0.1	-4.6%
COC(=O)[C@]1(Sc2ccc(OC)cc2)CC(=O)N[C@@H]1c1ccccc1	-0.9	-1.0%
c1ccc(-c2cc3nc(NCc4cccs4)nc(NCc4ccc5occc5c4)c3s2)cc1	-0.6	-26%
CC(=O)NC(c1cccc(F)c1)c1nc(-c2ccc(N(C)C)cc2)cs1 (stereo not given)	-1.0	-2.7%
O=C(Nc1c(-c2ccc3c(c2)OCO3)[nH][nH]c1=O)c1cnccn1	-0.6	2.1%
CCCS(=O)(=O)NC(=O)C1(C)CCN(C(=O)c2cccs2)C1 (stereo not given)	-0.5	-1.3%
O=c1[nH]c2ccccc2nc1-c1nnnn1C1CCCC1	-0.3	4.6%
CCNC(=O)C1(C)CCCN(C(=O)c2ccnc(Cl)c2)C1 (stereo not given)	0.1	-2.6%
COc1cc2c(NC3CCN(C)CC3)nc(N3CCCCC3)nc2cc1OCCOCCN(C)C	-0.4	4.5%
CC1(C(=O)NS(=O)(=O)C2CC2)CCN(C(=O)c2ccc(F)cc2Cl)C1 (stereo not given)	-0.3	0.9%
Cc1ccc(C)c(C(O)c2ncc(-c3cccc(C(F)(F)F)c3)[nH]2)c1 (stereo not given)	5.2	-1.8%
CNc1cncc(-c2ccc(C)cc2)n1	-0.7	5.0%
Cc1[nH]c2ccccc2c1C(=O)C(=O)N(C)c1ccccc1	-0.5	2.3%
CC(C)N1CCC1(C)C(=O)Nc1ccc(-n2cccc2)cc1 (stereo not given)	-0.3	-0.6%
C[n+]1ccc(/C=C/c2ccc([N+](C)(C)C)cc2)c2ccccc21	-0.7	-8.1%
COC(=O)Cc1ccc(OC2(C)CCN(Cc3ccc4c(c3)OCCO4)C2)cc1 (stereo not given)	-0.8	-7.6%
CC1(C(=O)Nc2ccc(F)cc2F)CCN1C(=O)Cc1ccc(Cl)cc1Cl (stereo not given)	-0.6	2.0%
COc1ccc(CC(N)c2csc(NC(=O)c3cc(C(C)(C)C)oc3C)n2)cc1 (stereo not given)	-0.7	-0.1%
COc1ccc(-c2cc3nc(NCCNC(C)=O)n(C)c(=O)c3s2)c(C)c1	-0.7	-22%
CC(C)=CCn1c2ccc(NC(=S)NC3CC3)cc2c(=O)n1C	-0.2	5.0%
CCOC(=O)C1(C)CCN1C(=O)c1ccccc1OC (stereo not given)	-0.2	0.1%
O=C(Nc1nnc([C@H]2C[C@H](O)[C@@H](CO)O2)s1)Nc1cccc2c1CCCC2	-0.5	0.2%
COC(=O)c1cc(=O)nc(NN=C2c3ccccc3-c3ccccc32)s1	-1.3	1.6%
CCCCc1c(-c2ccccc2F)ncn1CCc1ccccc1OC	3.2	2.4%
COc1ccccc1-c1cc(NC=O)c2ncc(-c3cccc(C(C)=O)c3)n2c1	-0.4	-16%
CC(OC(=O)c1ccccc1OCCOc1ccccc1)C(=O)Nc1ccc(Br)cc1 (stereo not given)	-1.1	-3.7%
CC(C)c1cc(Cn2c3ccccc3c(=O)n2C(C)CBr)on1 (stereo not given)	2.3	5.2%
O=C(NCc1ccccc1)C1Cc2c(-c3ccc4c(c3)OCO4)ccnc2O1 (stereo not given)	-1.1	4.5%
COc1ccc(CN2C(=O)c3ccccc3C2c2nnnn2-c2ccc3c(c2)OCCO3)cc1 (stereo not given)	-0.2	-18%
COc1cc2nc(N3CCCN(C)CC3)nc(NC(C)C)c2cc1OC	-0.8	4.1%
CN(C)c1ccc(-c2csc(C(C)(O)c3ccccc3)n2)cc1 (stereo not given)	-0.8	-4.0%
CSc1ccc(CN2CCC2(C)C(=O)Nc2cccc(Oc3ccccc3)c2)cc1 (stereo not given)	1.1	-2.9%
CCCCC[C@H]1CCCCC[C@H](O)C[C@H](O)[C@@H](O)/C=C/C(=O)O1	-0.4	4.4%
O=C(NCc1ccccc1)c1cc(C2COCCN2S(=O)(=O)c2ccccc2)on1 (stereo not given)	-0.8	0.6%
CC1(C(=O)NS(=O)(=O)c2cccc(C#N)c2)CCN1C(=O)c1ccc(C2CCCCC2)cc1 (stereo not given)	-0.4	-0.2%
COc1cc(N(C)C)ccc1/C=C1\C=Cc2ccccc21	-0.3	-0.3%
COc1cccc(C=C2Cc3ccccc3C2=O)c1	-1.2	-1.0%
COc1cc(OC)cc(C2=Cc3ccccc3C(CC(C)=O)N2c2ccc(C#CC3(O)CCCCC3)cc2)c1 (stereo not given)	-0.4	?

Compound activity as filed in PubChem.
